High-throughput results deposited in PubChem by National Center for Advancing Translational Sciences (NCATS).
LASV entry inh: inhibitors of Lassa virus binding or cell entry; AID 540256; Lassa virus pseudotype entry inhibition, cell reporter; control for the full effect not named in the record; Potency, µM (series often up to 37.9 µM), for inactives: at the highest dose activity change, negative = inhibition, most hits filed as inhibitors; 1.2% of 300,000 active; active means well fitted inhibition curve with a large enough effect; inconclusive means small, poorly fitted or top-dose-only effect, or effect the other way; inactive means flat fitted curve, though single readings scatter; tested in HEK293 cells; further: on the % scale 0 is the no-effect control and ±100 the full control effect; nearly all actives have a fitted effect of over 50% in size; luciferase read-out
RE007 growth inh: less growth of the S. pombe RE007 Vpr strain. 0.21% of 360,000 active. Potency, µM (top dose mostly 92.2 µM), for inactives: at the top dose activity change, negative = less growth. S. pombe RE007 Vpr strain, BacTiter-Glo ATP luminescence, 24 h; control for the full effect not named in the record; active = well fitted falling curve with a large enough effect; inconclusive = small, poorly fitted or top-dose-only effect; inactive = no such curve, though single readings can be large or run the other way;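 further: on the % scale 0 is the no-effect control and ±100 the full control effect; nearly all actives have a fitted effect of over 50% in size; the assay follows cell death caused by Vpr and the record does not say whether a fall means rescue or toxicity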
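Fission yeast RE007 carrying one integrated HIV-1 vpr copy, seeded at OD 0.01 in PMG+AL medium with 23 nL pinned compound. Grown 24 h at 30 degrees; viability read by BacTiter-Glo luminescence after 5 min.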
Cruzain Triton: inhibitors of Trypanosoma cruzi cruzain with detergent | Potency, µM, for inactives: max response, negative = inhibition, hits mostly inhibitors | 0.43% of 200,000 active | P25779 | purified cruzain, Z-FR-AMC fluorescence, 0.01% Triton;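 further: plate controls were neutral wells for no effect and buffer without enzyme for full effect; nearly all actives have a fitted effect of over 40% in size; top concentration of the series not given in the record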
Target sequence (P25779 123-467 limits assumed): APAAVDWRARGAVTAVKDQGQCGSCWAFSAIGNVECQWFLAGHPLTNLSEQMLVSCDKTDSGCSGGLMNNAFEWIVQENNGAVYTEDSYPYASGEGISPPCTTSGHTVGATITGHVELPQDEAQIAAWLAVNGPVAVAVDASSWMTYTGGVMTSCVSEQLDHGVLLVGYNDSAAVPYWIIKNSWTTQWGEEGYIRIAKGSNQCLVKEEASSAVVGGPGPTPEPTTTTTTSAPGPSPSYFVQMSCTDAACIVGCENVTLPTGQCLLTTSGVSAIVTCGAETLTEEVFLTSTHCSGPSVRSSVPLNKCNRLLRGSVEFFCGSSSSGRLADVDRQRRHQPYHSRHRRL
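Detergent-containing arm of a paired screen for aggregation-based inhibition: 0.01% Triton X-100 present. Cruzain at 1.5 nM cleaved 2 uM Z-FR-AMC at pH 5.5 with 5 mM DTT; AMC fluorescence gain over 60 s measured activity.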
MARV entry inh: inhibitors of Marburg virus binding or cell entry. AID 540276. Marburg virus pseudotyped entry inhibition, cell reporter; control for the full effect not named in the record; about a third of the inactives were read at about 46 µM. 1.8% of 300,000 active. Potency, µM (titrated, usually from 37.8 µM), inactives show at the top dose activity change, negative = inhibition, most hits filed as inhibitors; active = well fitted inhibition curve with a large enough effect; inconclusive = small, poorly fitted or top-dose-only effect, or effect the other way; inactive = flat fitted curve, though single readings scatter; tested in HEK293 cells; about a fifth of its hits are not listed in these tables; further: on the % scale 0 is the no-effect control and ±100 the full control effect; luciferase read-out
SARS PLpro yeast: blocks SARS-CoV papain-like protease in a yeast assay | S. cerevisiae expressing SARS-CoV PLpro, growth rescue; control for the full effect not named in the record | Potency, µM (series often up to 32.9 µM), without a hit: at the top dose activity, positive = growth rescue | 0.19% of 330,000 active; active means well fitted rising curve with a large enough effect; inconclusive means small, poorly fitted or top-dose-only effect; inactive means no such curve, though single readings can be large or run the other way; further: 0% is about no effect; nearly all actives have a fitted effect of over 55% in size; growth read by luminescence after 48 h
StopGo reporter: FMDV 2A StopGo reporter, luciferase signal; human cells with a luciferase reporter of 2A StopGo recoding; control for the full effect not named in the record; 1.2% of 410,000 active; Potency, µM (series often up to 57.9 µM), inactives show at the highest dose signal change, negative = less light; active = well fitted falling curve with a large enough effect; inconclusive = small, poorly fitted or top-dose-only effect; inactive = no such curve, though single readings can be large or run the other way; tested in HEK293T cells; further: on the % scale 0 is the no-effect control and ±100 the full control effect; nearly all actives have a fitted effect of over 45% in size; luciferase light after 4 h
NS1 function inh: influenza NS1 inhibition. S. cerevisiae slowed by influenza A NS1, growth recovery by OD600. Potency, µM (titrated, usually from 46.1 µM), for inactives: top-dose activity, positive = more growth. 0.4% of 270,000 active; active means well fitted rising curve with a large enough effect; inconclusive means small, poorly fitted or top-dose-only effect; inactive means no such curve, though single readings can be large or run the other way; further: nearly all actives have a fitted effect of over 50% in size
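Read-out: OD600 growth recovery of NS1-expressing budding yeast. Cells grown overnight at 30C in -URA glucose medium, washed, resuspended and diluted 1:100 in 2% galactose assay medium, pH 6.0. Same strain lacking NS1 served as positive control.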
Cruzain noTriton: inhibitors of Trypanosoma cruzi cruzain without detergent | Potency, µM, without a hit: max response, negative = inhibition, actives largely listed as inhibitors | purified cruzain, Z-FR-AMC fluorescence, no detergent | 2.3% of 200,000 active | AID 1476;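 further: plate controls were enzyme without inhibitor for no effect and buffer without enzyme for full effect; nearly all actives have a fitted effect of over 40% in size; top concentration of the series not given in the record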
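Purified cruzain at 1.5 nM, pre-incubated 15 min with compound at room temperature in 100 mM sodium acetate pH 5.5, 5 mM DTT, 0.00005% Triton X-100. Reaction started with 2 uM Z-FR-AMC; AMC fluorescence increase over 60 s gives rate.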
The depositor's hits bear a star; ? = inconclusive; / = not tested or not shown; & = joins results of further samples; [ ] = another dose, or the depositor's remark. Unless noted, the call rests on the fitted dose curve; in most records, active means well fitted curve in the direction sought with a large enough effect; inconclusive means small, poorly fitted or top-dose-only effect, or another doubt; inactive means no such curve, though single readings can be large; an effect the other way counts as inactive or inconclusive. Potency means the concentration at half of the fitted maximal effect. Rows were taken by chance; overall some 4.7% were active at least once.

SMILES	LASV entry inh	RE007 growth inh	Cruzain Triton	MARV entry inh	SARS PLpro yeast	StopGo reporter	NS1 function inh	Cruzain noTriton
CC(=O)Nc1cccc(NC(=O)c2ccc([N+](=O)[O-])cc2Cl)c1	8.0%	1.0%	-1.6%	4.1%	21.0%	16.0%	28.0%	4.2%
CCOc1ccc(NC(=O)CSc2nc3c(oc4ccccc43)c(=O)n2CCOC)cc1	/	/	-0.7%	-3.8%[46.1 µM]	/	12.1%	/	0.6%
Clc1nc(Cl)nc(N(c2ccccc2)c2ccccc2)n1	9.3%	4.2%	-1.9%	6.8%	4.2%	-18.5%	12.0%	-10.0%
Cc1ccc(-c2nc(C)c(CCNC(=O)C(=O)Nc3cc(C)ccc3C)s2)cc1	0.9%[46.1 µM]	/	0.1%	/	/	-8.3%	/	-9.6%
CCOc1ccc(C2CC(=O)c3c([nH]c(C(=O)OCCOc4ccccc4)c3C)C2)cc1 (centres undefined)	?	/	-0.2%	-1.3%[46.1 µM]	/	-23.2%	/	-1.6%
COc1ccccc1N1CCN(c2ncnc3c2cnn3C)CC1	?	/	0.3%	/	/	-21.7%	/	13.8%
C=CCn1c(C)nnc1SCC(=O)Nc1cc(S(=O)(=O)N2CCCC2)ccc1Cl	?	6.3%	/	-8.0%	-1.2%	-3.0%	/	/
O=c1c2ccc([N+](=O)[O-])cc2ncn1CCOc1ccc(Cl)cc1	/	-27.4%	/	/	-1.2%	-15.1%	-5.8%	/
CCCCCC(=O)N1CCN(CCN=CC2=C(O)CC(c3ccco3)CC2=O)CC1 (centres undefined)	?	13.2%	2.6%	-4.2%	6.1%	-11.8%	-2.5%	5.7%
CCOC(=O)c1cccc(NC(=O)c2cnc3sc(N4CCOCC4)nn3c2=O)c1	-12.9%[46.1 µM]	/	1.5%	/	/	?	/	-8.3%
COc1ccc(C2(CNC(=O)c3cc(OC)c(OC)c(OC)c3)CCCC2)cc1OC	-15.9%[46.1 µM]	5.4%	/	-0.4%[46.1 µM]	/	21.9%	/	/
CC1CCN(S(=O)(=O)c2cccc(C(=O)NNC(=O)c3ccco3)c2)CC1	-2.7%	3.8%	/	-0.6%[46.1 µM]	-0.6%	-24.3%	0.7%	/
COC(=O)c1nc(NC2=NCCCCC2)n[nH]1	0.2%	17.0%	3.0%	6.7%[46.1 µM]	-2.5%	8.0%	-1.1%	-2.1%
CCc1ccccc1NC(=O)CSc1nnc(C2CC2)n1CC1CCCO1 (centres undefined)	-7.9%	12.7%	/	-6.3%[46.1 µM]	2.1%	-7.9%	-4.0%	/
CC(C)CC(NC(=O)CCCNC(=O)CCC(=O)OC1O[C@H]2OC3(C)CC[C@H]4[C@H](C)CCC(C1C)C24OO3)C(=O)O (some centres undefined)	?	-13.7%	/	?	-9.7%	8.5%	-55.2%	/
CCOC(=O)CSc1nc2ccccc2c(=O)n1NC(=O)c1ccccc1	-6.8%	14.1%	0.9%	-6.5%	1.9%	-47.7%	-11.0%	1.0%
O=C(c1ccccn1)N(CC1CCCO1)C1(C(=O)NC2CCCCC2)CCCCC1 (centres undefined)	8.1%	-2.9%	3.3%	-14.8%	-1.8%	-10.3%	0.1%	-0.3%
COc1ccccc1Nc1c2ccccc2nc2ccccc12	?	1.4%	/	?	-1.1%	?	-0.1%	/
COc1ccc2nc(NC(=O)[C@@H]3CCCN3C(=O)c3cccs3)sc2c1	15.4%	-0.6%	-6.8%	-13.5%[46.1 µM]	1.6%	23.7%	12.1%	?
O=c1oc(-c2ccccc2)nc2c1C1(CCCCC1)Cc1ccccc1-2	15.0%	0.6%	-0.5%	11.3%	9.5%	8.1%	5.2%	25.1µM*
COCc1cc(CNC(=O)C2CCC(=O)N(Cc3ccccc3F)C2)[nH]n1 (centres undefined)	?	5.2%	/	1.1%	11.8%	15.0%	2.6%	/
O=C(COc1ccccc1-c1ccccc1)NCCN1C(=O)S/C(=C\c2cccnc2)C1=O	-10.5%	5.7%	-14.6%	-50.7%	-12.1%	31.6µM*	-1.6%	?
COc1ccc(CCNC(=O)c2c(O)c3c([nH]c2=O)CCCC3)cc1	-29.3%	-9.5%	4.8%	4.9%	4.4%	-11.0%	-1.3%	-9.6%
CCCN(CC(=O)Nc1ccc(F)c(F)c1F)CC(=O)Nc1c(Cl)cccc1Cl	?	/	-13.2%	?	12.1%	-16.1%	-27.0%	21.6%
CCCC(=O)Nc1ccc2c(c1)nc(CN1CCN(C(=O)OCC)CC1)n2C(C)C	-24.7%[46.1 µM]	/	4.7%	?	/	-17.6%	/	25.0%
CCC(=O)Nc1ccc(N2CCCCC2)c(C(=O)Nc2ccc(OC)cc2)c1	-19.0%	3.8%	/	?	-2.0%	-5.0%	-103.7%	/
O=C(c1ccc2c(=O)n(-c3ccccc3)c(=O)[nH]c2c1)N1CCN(c2ccc(F)cc2)CC1	-7.7%	-20.1%[3.69 µM]	-0.1%	?	4.3%	-26.3%	-16.9%	6.1%
COc1ccc(CCNC(=O)C2CC(c3ccccc3F)=NO2)cc1 (centres undefined)	/	1.5%	/	/	-6.1%	14.0%	-2.5%	/
CCOc1c(Br)cc(CNc2ccc3c(c2)OCCO3)cc1OC	-7.0%	-20.1%	0.0%	?	3.4%	25.1µM*	-10.0%	6.5%
CCOC(=O)CSc1snnc1C	29.5%	5.1%	/	-16.0%	/	-10.0%	/	/

Given as a markdown table: part of the list above
| Molecule | LASV entry inh | RE007 growth inh | Cruzain Triton | MARV entry inh | SARS PLpro yeast | StopGo reporter | NS1 function inh | Cruzain noTriton |
| --- | --- | --- | --- | --- | --- | --- | --- | --- |
| CCOC(=O)CSc1nc2ccccc2c(=O)n1NC(=O)c1ccccc1 | -6.8% | 14.1% | 0.9% | -6.5% | 1.9% | -47.7% | -11.0% | 1.0% |
| O=C(c1ccccn1)N(CC1CCCO1)C1(C(=O)NC2CCCCC2)CCCCC1 (centres undefined) | 8.1% | -2.9% | 3.3% | -14.8% | -1.8% | -10.3% | 0.1% | -0.3% |
| COc1ccccc1Nc1c2ccccc2nc2ccccc12 | ? | 1.4% | / | ? | -1.1% | ? | -0.1% | / |
| COc1ccc2nc(NC(=O)[C@@H]3CCCN3C(=O)c3cccs3)sc2c1 | 15.4% | -0.6% | -6.8% | -13.5%[46.1 µM] | 1.6% | 23.7% | 12.1% | ? |
| O=c1oc(-c2ccccc2)nc2c1C1(CCCCC1)Cc1ccccc1-2 | 15.0% | 0.6% | -0.5% | 11.3% | 9.5% | 8.1% | 5.2% | 25.1µM* |
| COCc1cc(CNC(=O)C2CCC(=O)N(Cc3ccccc3F)C2)[nH]n1 (centres undefined) | ? | 5.2% | / | 1.1% | 11.8% | 15.0% | 2.6% | / |

Remaining list, next part
SMILES	LASV entry inh	RE007 growth inh	Cruzain Triton	MARV entry inh	SARS PLpro yeast	StopGo reporter	NS1 function inh	Cruzain noTriton
CCOC(=O)c1sc(NC(=O)c2cncc(Br)c2)nc1C	/	/	0.7%	/	0.2%	/	5.0%	18.6%
COc1ccc(N(C(=O)c2ccco2)S(=O)(=O)c2cc(OC)ccc2OC)cc1	-5.3%	3.4%	3.1%	-11.8%&-11.8%	-1.5%	8.2%	-31.0%	29.2%
O=C(CSc1cccc[n+]1[O-])NCC1CCCCC1	18.7%[46.1 µM]	12.4%	/	27.2%[46.1 µM]	3.2%	23.6%	/	/
CC(C)COP(=O)(c1ccc(N(C)C)cc1)C(O)c1ccccc1 (centres undefined)	5.3%	-1.8%	/	17.6%[46.1 µM]	9.6%	8.8%	2.3%	/
Cc1ccc(CN2CC(C(=O)N3CCN(S(=O)(=O)c4ccccc4)CC3)CC2=O)cc1 (centres undefined)	-26.3%	-0.9%	/	-2.6%[46.1 µM]	5.4%	25.6%	/	/
CCC(C(=O)NC1CCCCC1)n1c(SCc2cccc(F)c2)nc2ccncc21 (centres undefined)	?	-3.5%	12.6µM*	?	5.0%	-2.6%&-16.1%	21.1%	?
Cc1cc(C)n(-c2ccc(C(=O)Nc3cc(C(F)(F)F)ccc3N3CCOCC3)cc2)n1	-3.0%	6.5%	-0.9%	2.8%	-2.6%	20.2%	0.6%	22.7%
COc1ccccc1Cn1c(SCC(=O)C(C)(C)C)nc2ccccc2c1=O	?	/	-2.6%	/	/	-6.5%	/	-1.3%
Cc1nn(CCCC(=O)NCCc2ccccc2)c(=O)c2nccn12	/	4.3%	/	/	0.4%	2.7%	-4.2%	/
Cc1cccc(N2CC(C(=O)OCC(=O)c3c(N)n(CC(C)C)c(=O)n(C)c3=O)CC2=O)c1C (centres undefined)	-25.7%	-6.1%	/	-17.8%	-17.8%	?	/	/
CCN(CC(=O)Nc1ccc(OC)cc1)C(=O)CSCC(=O)Nc1cc(C)on1	2.1%	15.7%	/	?	-3.4%	-10.7%	/	/
COc1ccc(N(CC(=O)Nc2ccccc2C(=O)NCC(C)C)S(C)(=O)=O)cc1	-12.2%	-2.6%	0.6%	9.2%	15.9%	-13.9%	-9.2%	-4.7%
CCOc1ccccc1/C=c1\sc2nc(-c3ccco3)nn2c1=O	-4.1%	-8.3%	-4.2%	-19.2%&-19.2%	-18.5%	-5.3%	?	?
O=C(CCN1CCOCC1)N1c2ccccc2Sc2ccc(Cl)cc21	/	-8.5%	/	/	-3.8%	-21.4%	11.2%	/
Cc1cc(C(=O)N/N=C/c2c[nH]c3ccccc23)cs1	?	-0.6%	-8.3%	?	8.1%	48.2%[activator]	-1.8%	1.1%
N#CC/C(N)=N/NC(=O)CCCNc1ncc(C(F)(F)F)cc1Cl	-0.1%	16.8%	/	-16.0%[46.1 µM]	-1.0%	19.3%	7.5%	/
COc1cc(C(=O)OC2CCN(C)CC2)cc(OC)c1OC	26.5%	-14.5%	0.5%	5.9%	4.3%	2.3%	-3.6%	-9.6%
C=CCc1c(C)nc(SC)nc1Nc1ccc(C(=O)O)cc1	-14.5%	6.9%	-1.5%	-15.4%	4.3%	-21.6%	-2.4%	-10.1%
Cc1cc(C)cc(NC(=O)C2CCN(S(=O)(=O)c3ccc4[nH]c(=O)ccc4c3)CC2)c1	/	6.8%	/	/	-2.8%	0.0%	-1.8%	/
